Source: PubChem BioAssay
MITF inhib – inhibitors of MITF, primary screen, MITF inhibitor project, cell-based, luminescence; TRPM1 promoter luciferase, 24 h; inhibition, % (no concentration beside the values); actives 0.28% (n = 37,000);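 active = most replicates at 85% or more, or half of them and the mean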;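 note: human melanocyte line stably carrying TRPM1 promoter luciferase reporter; 0% = vehicle wells and 100% = a positive control; the first replicate is given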
YB-1 expr inh – inhibitors of YB-1 gene expression, primary screen, cell-based, fluorescence. delta delta Cp (YB-1 minus CDIP) (no concentration beside the values). AID 434959, 2010. U2OS, qRT-PCR YB-1 vs CDIP delta delta Cp, 16 h; active compounds read high; zero = DMSO, each unit about twofold. actives 0.37% (n = 30,000);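 active = delta delta Cp rounded down to an integer at or above 3, about 3 SD of DMSO wells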;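 note: higher means less YB-1 transcript or more CDIP transcript relative to DMSO; stock transfer was 100 nL into about 100 µL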
Shh pathway inh – Hedgehog pathway signaling inhibitors, primary screen, luminescence, Shh-LIGHT2 cells, Gli-luciferase; Shh-LIGHT2 Gli-luciferase reporter, 30 h; inhibition, % (test concentration not listed); actives 2.1% (n = 22,000); AID 2313, 2010;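 active = replicate mean of 65% or more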;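 note: pathway switched on by Shh-conditioned medium diluted 1 in 25 in low serum; 100 nL library stock added to about 40 µL; 0% = median of neutral wells and 100% = positive control level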
PD-1 reversal – activators reversing PD-1 mediated T-cell inhibition, primary screen, luminescence, primary human CD4 T cells, PD-L1 beads | AID 2316, 2010 | activation, % (test concentration not listed) | 29,000 tested, under 10 active | CellTiter-Glo 96 h;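 active = replicate mean of 50% or more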;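 note: 0% = median vehicle wells and 100% = positive control; 100 nL library stock added to about 50 µL; numbers are from one replicate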
* = called active by the depositor; . = no result given. The list is partial; rates above refer to the full screens.

Order of results: MITF inhib, YB-1 expr inh, Shh pathway inh, PD-1 reversal
Cc1noc(C)c1NC(=O)Nc1cccc2c1O[C@@H](CN(C)C(=O)Nc1ccccc1)[C@H](C)CN([C@@H](C)CO)C2=O
  -7.0, 0.447, -28.3, 0.9
C[C@H]1CN([C@@H](C)CO)C(=O)c2cccc(NS(=O)(=O)c3ccccc3)c2O[C@H]1CN(C)Cc1ccc(C(=O)Nc2ccccc2N)cc1
  10.9, 0.0626, ., 0.1
CC(=O)Nc1ccc(-c2nnc(SCC(=O)Nc3cc(Cl)cc(Cl)c3)n2C)cc1
  6.7, ., ., 1.9
CCCCCCCCC/C=C/CCCCC(=O)C1C(=O)CCC(O)C1=O (stereo not drawn)
  29.5, 0.848, -7.8, -0.3
C[C@H](CO)N1C[C@H](C)[C@@H](CN(C)C(=O)NC2CCCCC2)Oc2ccc(N(C)C)cc2C1=O
  0.2, 0.0823, -19.3, .
C[C@H]1CN([C@@H](C)CO)C(=O)Cc2cc(NC(=O)CCN3CCOCC3)ccc2O[C@H]1CN(C)Cc1ccc(C(=O)Nc2ccccc2N)cc1
  -12.0, -0.594, ., -3.3
C[C@H]1CN([C@@H](C)CO)C(=O)c2cc(NS(=O)(=O)c3cccs3)ccc2O[C@H]1CN(C)S(C)(=O)=O
  -8.0, 0.485, ., 2.1
C[C@@H]1CN([C@H](C)CO)C(=O)c2cc(NC(=O)CCN3CCOCC3)ccc2O[C@@H]1CN(C)Cc1ccc(C(F)(F)F)cc1
  -11.7, 0.174, -15.5, .
CC1CCc2sc(NC(=O)C(Cc3ccccc3)Cc3ccccc3)c(C#N)c2C1 (stereo not drawn)
  -0.3, -0.0778, -23.6, -1.3
C[C@H](CO)N1C[C@H](C)[C@H](CN(C)Cc2ccc(C(F)(F)F)cc2)Oc2ccc(NS(=O)(=O)c3cn(C)cn3)cc2CC1=O
  -8.8, -0.353, -36.3, -0.2
COc1ccc(OC2OC(COC3OCC(O)C(O)C3O)C(O)C(O)C2O)cc1OC (stereo not drawn)
  -19.5, -0.485, -12.6, 1.9
C[C@@H]1CN([C@H](C)CO)C(=O)Cc2cc(NC(=O)CCN3CCOCC3)ccc2O[C@@H]1CN(C)C(=O)Nc1ccc2c(c1)OCO2
  1.9, 0.39, -46.2, -0.7
O=C1CC(c2ccccc2)Oc2cc(O)cc(O)c21 (stereo not drawn)
  -29.7, -0.0755, -7.8, -2.3
COc1ccc(S(=O)(=O)Nc2ccc3c(c2)C(=O)N([C@H](C)CO)C[C@H](C)[C@H](CN(C)S(=O)(=O)c2ccc(C)cc2)O3)cc1
  -0.9, 0.666, ., -2.7
C=C(C)CC1C(=O)N(S(=O)(=O)c2ccccc2Cl)N=C1C (stereo not drawn)
  4.9, 0.14, 51.7, 3.3
C[C@H]1CN([C@@H](C)CO)C(=O)Cc2cc(NC(=O)Nc3ccc(C(F)(F)F)cc3)ccc2O[C@H]1CN(C)C(=O)Nc1ccc(F)cc1
  -8.1, 0.0736, 15.1, -0.2
C[C@@H]1CCCCO[C@@H](CN(C)Cc2ccc(Cl)c(Cl)c2)[C@@H](C)CN([C@H](C)CO)C(=O)c2cc(NC(=O)CCC(F)(F)F)ccc2O1
  24.7, -0.286, 22.4, .
C[C@@H]1CCCCO[C@H](CN(C)C(=O)NC2CCCCC2)[C@@H](C)CN([C@H](C)CO)C(=O)c2cc(NC(=O)NC3CCCCC3)ccc2O1
  19.3, 0.114, 6.3, -4.4
Cc1ccc(S(=O)(=O)Nc2cccc3c2O[C@@H](CN(C)Cc2ccc(Oc4ccccc4)cc2)[C@H](C)CN([C@@H](C)CO)C3=O)cc1
  49.0, 0.0574, 9.9, .
Cc1noc(C)c1NC(=O)N(C)C[C@H]1Oc2c(NC(=O)Nc3ccc(C(F)(F)F)cc3)cccc2C(=O)N([C@H](C)CO)C[C@H]1C
  -7.1, 0.254, -11.4, -0.2
COC(=O)c1ccccc1NC(=O)C1CCN(S(=O)(=O)c2cc(OC)ccc2OC)CC1
  -4.5, ., ., -0.7
Cn1nnnc1SCCNC/C=C/c1ccccc1
  10.3, ., ., -0.6
Cc1noc(C)c1NC(=O)Nc1cccc2c1O[C@H](CN(C)Cc1ccc(C(=O)O)cc1)[C@H](C)CN([C@H](C)CO)C2=O
  1.7, -0.161, -39.4, 1.5
C[C@@H]1CN([C@@H](C)CO)C(=O)c2cccc(NC(=O)Nc3ccc4c(c3)OCO4)c2O[C@@H]1CN(C)Cc1ccccc1
  -19.4, -0.115, -17.1, .
C[C@H](CO)N1C[C@H](C)[C@@H](CN(C)CC2CCCCC2)Oc2ccc(NC(=O)CCCCCC(=O)Nc3ccccc3N)cc2C1=O
  -3.9, 0.682, ., 1.2
CCN1CCN(C(=S)c2cc(I)c(OCC(=O)Nc3cccc(C)c3)c(OC)c2)CC1
  6.8, ., ., -0.2
O=C(CNS(=O)(=O)c1ccccc1)Nc1ccc(I)cc1
  4.9, ., ., 0.9
Cc1ccc(S(=O)(=O)N(C)C[C@@H]2Oc3c(NC(=O)c4ccncc4)cccc3C(=O)N([C@H](C)CO)C[C@@H]2C)cc1
  -11.5, -0.109, 4.8, -0.8
CN1CCN(C(=O)CN(c2cc(C(F)(F)F)ccc2Cl)S(=O)(=O)c2ccccc2)CC1
  9.4, ., ., 2.0
Cc1ccc(CN2C(=O)N(c3ccccc3)C(=O)C2CC(=O)Nc2ccccc2)cc1 (stereo not drawn)
  0.3, ., ., -0.7
COc1ccc(NC(=O)N(C)C[C@@H]2Oc3ccc(NC(=O)Nc4ccc5c(c4)OCO5)cc3C(=O)N([C@H](C)CO)C[C@@H]2C)cc1
  -1.7, -0.347, 18.6, -1.8
COc1ccc(NC(=O)N(C)C[C@@H]2Oc3ccc(NS(=O)(=O)c4ccc(OC)cc4)cc3C(=O)N([C@H](C)CO)C[C@H]2C)cc1
  5.2, -0.00531, ., .
C[C@@H]1CN([C@H](C)CO)C(=O)Cc2cc(NC(=O)C3CCCCC3)ccc2O[C@H]1CN(C)S(=O)(=O)c1ccc(Cl)cc1
  -7.5, -0.358, ., .
C[C@@H]1CN([C@H](C)CO)C(=O)c2cccc(NC(=O)C3CCOCC3)c2O[C@H]1CN(C)Cc1ccncc1
  -10.0, -0.00337, -11.3, 2.5
Cc1c(NC(=O)Cn2ccc([N+](=O)[O-])n2)c(=O)n(-c2ccccc2)n1C
  -10.2, ., ., 4.8
COc1ccc(CN(C)C[C@H]2Oc3ccc(NC(=O)C4CC4)cc3CC(=O)N([C@@H](C)CO)C[C@@H]2C)cc1
  2.5, -0.19, 4.9, .
C[C@H](CO)N1C[C@H](C)[C@@H](CN(C)CC2CCCCC2)Oc2c(NC(=O)Nc3ccc(C(F)(F)F)cc3)cccc2C1=O
  27.1, -0.279, -72.9, -5.4
COc1ccc(CN(C)C[C@@H]2Oc3ccc(NS(=O)(=O)c4c(C)noc4C)cc3CC(=O)N([C@@H](C)CO)C[C@@H]2C)cc1
  -7.4, 0.435, 41.5, .
O=C1CC(N(Cc2ccco2)C(=O)Nc2ccc(F)cc2)C(=O)N1c1ccc(F)cc1 (stereo not drawn)
  -17.9, ., ., 0.1
COc1ccc(CN(C)C[C@@H]2Oc3c(NS(=O)(=O)c4c(C)noc4C)cccc3C(=O)N([C@H](C)CO)C[C@@H]2C)cc1
  -2.4, -0.0952, 8.7, .

The list goes on:
SMILES,MITF inhib,YB-1 expr inh,Shh pathway inh,PD-1 reversal
C[C@@H]1CN([C@H](C)CO)C(=O)Cc2cc(NC(=O)Nc3ccc4c(c3)OCO4)ccc2O[C@H]1CN(C)S(C)(=O)=O,-3.2,0.12,-11.2,2.7
COc1ccc(S(=O)(=O)N(C)C[C@H]2Oc3ccc(NC(=O)NC4CCCCC4)cc3CC(=O)N([C@H](C)CO)C[C@H]2C)cc1,0.3,-0.151,26.7,-3.4
C[C@H](CO)N1C[C@H](C)[C@H](CN(C)S(=O)(=O)c2ccc(F)cc2)Oc2c(NS(C)(=O)=O)cccc2C1=O,-13.6,0.944,6.5,0.4
O=C(O)c1cc(NC(=O)C2CCCO2)cc(C(=O)O)c1 (stereo not drawn),4.6,.,.,1.7
O=C(CCN1C(=O)c2ccccc2S1(=O)=O)Nc1cccc(Cl)c1Cl,-29.5,.,.,-0.6
COc1ccc(NC(=O)N(C)C[C@H]2OCCCC[C@@H](C)Oc3ccc(NC(=O)C4CCCCC4)cc3C(=O)N([C@H](C)CO)C[C@@H]2C)cc1,-10.8,-0.251,43.4,-0.7
COc1ccc(-c2nnc(SCc3csc(N)n3)n2C)cc1,-33.9,.,.,-1.5
C[C@H]1CN([C@@H](C)CO)C(=O)c2cc(NC(=O)C3CC3)ccc2O[C@H]1CN(C)Cc1ccc(C(=O)Nc2ccccc2N)cc1,-14.6,-0.011,.,0.4
CC(C)NC(=O)Nc1ccc2c(c1)C(=O)N([C@H](C)CO)C[C@H](C)[C@H](CN(C)Cc1ccc3c(c1)OCO3)O2,-1.5,-0.0374,.,.
C[C@@H]1CCCCO[C@H](CN(C)C(=O)Cc2ccccc2)[C@@H](C)CN([C@H](C)CO)C(=O)c2cc(NC(=O)Nc3cccc4ccccc34)ccc2O1,-5.9,0.581,-10.8,-0.8
C[C@@H]1CN([C@@H](C)CO)C(=O)c2cc(NS(=O)(=O)c3ccccc3)ccc2O[C@@H]1CN(C)S(=O)(=O)c1ccccc1,-4.2,-0.255,8.5,-1.0
C[C@@H]1CCCCO[C@@H](CN(C)S(=O)(=O)c2ccc(F)cc2)[C@@H](C)CN([C@H](C)CO)C(=O)c2cc(N(C)C)ccc2O1,-9.3,0.0376,.,.

A draw from above in order of heavy-atom count, smallest number first:
SMILES,MITF inhib,YB-1 expr inh,Shh pathway inh,PD-1 reversal
COc1ccc(-c2nnc(SCc3csc(N)n3)n2C)cc1,-33.9,.,.,-1.5
CC(C)NC(=O)Nc1ccc2c(c1)C(=O)N([C@H](C)CO)C[C@H](C)[C@H](CN(C)Cc1ccc3c(c1)OCO3)O2,-1.5,-0.0374,.,.
C[C@@H]1CN([C@@H](C)CO)C(=O)c2cc(NS(=O)(=O)c3ccccc3)ccc2O[C@@H]1CN(C)S(=O)(=O)c1ccccc1,-4.2,-0.255,8.5,-1.0

(next part)
SMILES,MITF inhib,YB-1 expr inh,Shh pathway inh,PD-1 reversal
C[C@@H]1CN([C@H](C)CO)C(=O)Cc2cc(NC(=O)Nc3ccccc3)ccc2O[C@H]1CN(C)CC1CCCCC1,-7.5,0.0626,-26.5,2.0
C[C@@H]1CCCCO[C@H](CN(C)Cc2ccccc2)[C@@H](C)CN([C@H](C)CO)C(=O)c2cc(NC(=O)Cc3ccccc3)ccc2O1,-15.5,0.0233,-8.2,.
COc1ccc(NC(=O)N(C)C[C@@H]2Oc3c(NC(=O)C4CCOCC4)cccc3C(=O)N([C@H](C)CO)C[C@H]2C)cc1,-4.5,0.094,-16.5,1.6
COC1OC2COC(c3ccccc3)OC2CC1O (stereo not drawn),-9.8,-0.413,2.3,1.9
C[C@@H]1CN([C@@H](C)CO)C(=O)c2cccc(NC(=O)CCCCCC(=O)Nc3ccccc3N)c2O[C@H]1CN(C)S(=O)(=O)c1cn(C)cn1,-20.8,0.327,.,1.2
Cc1noc(C)c1NC(=O)N(C)C[C@H]1Oc2c(NC(=O)c3cnccn3)cccc2C(=O)N([C@@H](C)CO)C[C@@H]1C,-8.9,0.378,33.9,.
CN(C)c1nc(OCC(=O)Nc2ccc(Cl)cc2)nc(N(C)C)n1,-5.4,.,.,-1.9
CNC(=S)C12CC3CC(CC(C3)C1)C2,-13.1,-0.383,.,-1.2
C[C@H](CO)N1C[C@H](C)[C@H](CN(C)Cc2ccc(C(=O)Nc3ccccc3N)cc2)Oc2ccc(N(C)C)cc2C1=O,30.2,0.687,.,-2.2
Cc1noc(C)c1NC(=O)N(C)C[C@@H]1Oc2c(NC(=O)C3CCOCC3)cccc2C(=O)N([C@H](C)CO)C[C@H]1C,-6.9,-0.0341,16.0,.
COc1ccc(S(=O)(=O)Nc2cccc3c2O[C@@H](CN(C)C(=O)Nc2ccc(C(F)(F)F)cc2)[C@@H](C)CN([C@@H](C)CO)C3=O)cc1,8.5,-0.247,19.9,-4.2
C[C@H](CO)N1C[C@H](C)[C@H](CN(C)CC2CCCCC2)Oc2c(NC(=O)CCCCCC(=O)Nc3ccccc3N)cccc2C1=O,10.2,0.344,.,0.8
Cc1noc(C)c1NC(=O)N(C)C[C@H]1Oc2c(NC(=O)Nc3ccc(F)cc3)cccc2C(=O)N([C@@H](C)CO)C[C@@H]1C,-0.3,-0.285,-17.5,.
C[C@H](CO)N1C[C@H](C)[C@H](CN(C)Cc2ccc(Cl)c(Cl)c2)Oc2ccc(NC(=O)Cn3cnnn3)cc2CC1=O,16.4,-0.115,-34.9,1.7
